VDR inh – inhibitors of human vitamin D receptor. 400,000 tested, 0.93% active. Potency, µM, without a hit: max response, negative = inhibition, usual class: inhibitors. P11473. AID 504847. VDR-SRC2-3 peptide fluorescence polarization, 2 h; active means well fitted inhibition curve with a large enough effect; inconclusive means small, poorly fitted or top-dose-only effect, or another doubt; inactive means no such curve, though single readings can be large or run the other way; further: series mostly up to about 120 µM
Target sequence (P11473 whole entry, looked up): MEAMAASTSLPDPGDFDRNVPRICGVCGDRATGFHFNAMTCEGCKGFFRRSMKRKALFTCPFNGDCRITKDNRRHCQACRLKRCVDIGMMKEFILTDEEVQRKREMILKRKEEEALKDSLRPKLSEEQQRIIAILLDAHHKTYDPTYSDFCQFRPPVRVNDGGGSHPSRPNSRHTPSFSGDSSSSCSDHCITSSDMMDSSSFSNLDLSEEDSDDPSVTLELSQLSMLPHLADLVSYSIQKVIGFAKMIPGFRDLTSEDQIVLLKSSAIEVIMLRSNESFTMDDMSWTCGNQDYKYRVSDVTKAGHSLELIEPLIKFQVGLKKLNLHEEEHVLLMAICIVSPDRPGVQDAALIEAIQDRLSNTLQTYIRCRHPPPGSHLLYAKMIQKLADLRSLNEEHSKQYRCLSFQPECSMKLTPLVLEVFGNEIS
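Fluorescence polarization assay measuring small-molecule disruption of VDR binding to the coregulator peptide SRC2-3. Compounds were pin-transferred (23 nl) into the reagent mix and incubated 2 h at room temperature before reading.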
Starred values were filed as active, the others as inactive; ? = inconclusive; & = joins results of further samples. On the % scale 0 is the no-effect control and ±100 the full control effect; potency means the concentration at half of the fitted maximal effect.

VDR inh	smiles
-9%	CC(c1nc2ccccc2c(=O)[nH]1)N(C)CCOc1ccc(Cl)cc1 (centres undefined)
7%	Cc1sc2ncnc(N3CCC(C(=O)NNC(=O)c4ccccc4Cl)CC3)c2c1C
-16%	COc1ccc(OC)c(C(C)NC(=O)c2ccc(Br)cc2)c1 (centres undefined)
25%	Cc1ccc(-c2nnn(CC(=O)N(C)C3CCCCC3)n2)o1
-9%	CCN1C[C@@H]2[C@@H]3C(=O)N(C)C(=O)[C@@H]3[C@](C)(C1=O)N2C(=O)c1ccc(C(C)(C)C)cc1
6%	Cc1cc(NC(=O)c2ccc(Br)o2)cc(-c2nc3ccccc3o2)c1O
-14%	Cc1cc(C)n2c(Nc3cccc(C(F)(F)F)c3)c(-c3ccsc3)nc2n1
2%	Cc1ccc(S(=O)(=O)N2CCN(C(=O)CN3CCCCC3)C2)cc1
?	Cc1nc2cc(NC(=O)NCCCO)ccc2o1
1%	COc1ccc(/C=N/NC(=O)C2(O)c3ccccc3-c3ccccc32)cc1
-7%	COc1ccc(N2CC(C)(C)C2=O)cc1
-1%	O=C(CSc1cccc[n+]1[O-])NC(=O)c1ccc(OC(F)F)cc1
21%	CCOC(=O)c1ccc(N2C(=O)CC(N3CC(C)OC(C)C3)C2=O)cc1 (centres undefined)
1%	O=C(c1ccc2c(c1)OCO2)c1cn(Cc2ccc(F)cc2)c2ccccc2c1=O
-15%	Cc1cccc(N2CCN(S(=O)(=O)c3cc(-c4cc(C)no4)ccc3C)CC2C)c1 (centres undefined)
-8%	COc1ccccc1C(=O)Nc1ccc(NC(=O)c2ccco2)cn1
6%&8%	CC(C)(C)OC(=O)NCCCCCO
-8%&-6%	CN(C)CCOc1ccc(/C(=C(/CCCl)c2ccccc2)c2ccccc2)cc1
-10%	CCOCc1cn(CC(=O)c2ccc(Cl)cc2)c(C)nc1=N
10%	CC(=O)Nc1ccc(S(=O)(=O)NC2(C(F)(F)F)NC(=O)N(CC(C)C)C2=O)cc1 (centres undefined)
-12%	CSc1ccccc1C(=O)Nc1ccc2c(c1)CCC2
-10%	NC(=O)CC(NC(=O)Cc1ccc(Br)cc1)c1ccc(NCc2ccc(F)c(F)c2)c([N+](=O)[O-])c1 (centres undefined)
-13%	CN(Cc1ccccc1)S(=O)(=O)c1ccc2c(c1)CCC(=O)N2
6%	Cc1cccc(-c2cc(NC(=O)c3ccccc3C)n(-c3ccccc3)n2)c1
-25%	Cc1nn(-c2ccccc2)c(N2CCCC2)c1/C=N/NC(=O)C1CC1

The closing two entries of the section before lead into the next.
VDR inh	smiles
6%	Cc1cccc(-c2cc(NC(=O)c3ccccc3C)n(-c3ccccc3)n2)c1
-25%	Cc1nn(-c2ccccc2)c(N2CCCC2)c1/C=N/NC(=O)C1CC1
-11%	O=C(Nc1ccccc1N1CCCCC1)C1CCN(S(=O)(=O)c2ccccc2C(F)(F)F)CC1
-1%	Cc1cccc(NC(=O)C2CCCN(C(=O)NC3CCCCC3)C2)c1C (centres undefined)
3%	CCOC(=O)N1CCN(CC(O)c2c[nH]c3ccc(OC)cc23)CC1 (centres undefined)
17%	CC(=O)OCC1OC(Oc2cc(OC(C)=O)c3c(=O)cc(-c4ccc(OC(C)=O)cc4)oc3c2)[C@@H](OC(C)=O)C(OC(C)=O)C1OC(C)=O (some centres undefined)
-2%	CCOc1ccc(C(=O)Nc2ccc(NC(=O)c3ccco3)c(Cl)c2)cc1Cl
6%	COc1ccccc1C(=O)NCCC(=O)N1CCN(c2ccccc2Cl)CC1
2%	Cc1ccc(-c2nn3c(C)nnc3c3ccccc23)cc1S(=O)(=O)N(C)CCO
5%	CN(Cc1ccccc1)S(=O)(=O)c1ccc(F)c(C(=O)Nc2cccc(Cl)c2Cl)c1
-2%	Cc1ccc(C(=O)NNS(=O)(=O)c2ccccc2[N+](=O)[O-])cc1
0%	O=C(CSc1ccc(Cl)cc1)N/N=C/c1ccc([N+](=O)[O-])o1
6%	COCCn1c(SCc2ccc(C(=O)OC)o2)nc2cc(Cl)ccc2c1=O
-17%	Cc1ccc(/C=C/S(=O)(=O)NCC(=O)O)cc1
35µM*	C=CCN1CCN(c2nc3ccccc3nc2C#N)CC1
-26%	Cc1ccc(N2C(=O)C3C4C=CC(CNC(=S)Nc5ccc(Cl)cc5)(O4)C3C2=O)cc1 (centres undefined)
-5%	COc1cccc(C2/C(=C(\O)c3ccc4c(c3)OCCO4)C(=O)C(=O)N2CC2CCCO2)c1 (centres undefined)
5%	COc1cc2c(cc1OC)CN(S(=O)(=O)c1cccc(F)c1)CC2
-20%	C=CCn1cc(C(=O)NCc2ccc(Cl)cc2)c(=O)c2cc(S(=O)(=O)N(CC)CC)ccc21
13%	Cc1ccc(CCNC(=O)c2c(C)oc3ncnc(N4CCOCC4)c23)cc1
-14%&-15%	Cc1ccc(S(=O)(=O)N2CCC(=O)N(CCOC(=O)Nc3cc(C)cc(C)c3)CC2)cc1
7%	COc1ccc(S(=O)(=O)Nc2nc3ccccc3s2)cc1OC
9%	Cc1ccc(OCCNC(=O)CNC(=O)c2ccc(Cl)c([N+](=O)[O-])c2)cc1
-8%	CC12C(=O)N(Cc3ccccc3)C(=O)C1C1C=CC2C1 (centres undefined)
7%	COc1cc(/C=C/C(=O)O)ccc1OS(=O)(=O)c1cc(Br)ccc1C
-4%	CC(C)OCCCNc1ncnc2c1nc1n2CCCC1
?	COc1ccc2oc(=N)c(C(=O)Nc3ccc(Br)cc3)cc2c1

Sorted by formula weight (descending): some entries from above.
VDR inh	smiles
-26%	Cc1ccc(N2C(=O)C3C4C=CC(CNC(=S)Nc5ccc(Cl)cc5)(O4)C3C2=O)cc1 (centres undefined)
6%	COCCn1c(SCc2ccc(C(=O)OC)o2)nc2cc(Cl)ccc2c1=O
?	COc1ccc2oc(=N)c(C(=O)Nc3ccc(Br)cc3)cc2c1
-2%	Cc1ccc(C(=O)NNS(=O)(=O)c2ccccc2[N+](=O)[O-])cc1

Returning to the listing, starting 5 compounds before the break.
VDR inh	smiles
9%	Cc1ccc(OCCNC(=O)CNC(=O)c2ccc(Cl)c([N+](=O)[O-])c2)cc1
-8%	CC12C(=O)N(Cc3ccccc3)C(=O)C1C1C=CC2C1 (centres undefined)
7%	COc1cc(/C=C/C(=O)O)ccc1OS(=O)(=O)c1cc(Br)ccc1C
-4%	CC(C)OCCCNc1ncnc2c1nc1n2CCCC1
?	COc1ccc2oc(=N)c(C(=O)Nc3ccc(Br)cc3)cc2c1
3%	COc1ccc(COC(=O)c2cc(S(=O)(=O)N3CCCCC3)ccc2N2CCOCC2)cc1
-19%	O=C(CNC(=S)N(Cc1ccccc1)Cc1ccccc1F)NCc1ccccc1
0%	Nc1cccc(CCc2nc3ccccc3[nH]2)c1
4%	Cc1ccc(C)c(NC(=O)CCN2CCC(C)CC2)c1
?	CC(C)c1ccc(N(CC(=O)N/N=C/c2ccc(OC3CSC3)cc2)S(=O)(=O)c2ccccc2)cc1
4%	COc1ccc2c(c1)CCc1c(C(=O)NCCc3ccc(OC)c(OC)c3)noc1-2
-1%	O=C(CNc1ccccc1F)Nc1cc(S(=O)(=O)N2CCCCC2)ccc1Cl
-2%	O=C1CCC/C=C/C[C@@H](CC(=O)N(CCO)Cc2ccccc2)C(=O)NC[C@@H](c2ccccc2)O1
-4%	CCc1c(-c2ccccc2)[n+](=O)c2c(n1[O-])CCC2
7%	COc1ccc(C(CC(=O)O)NC(=O)c2ccco2)cc1 (centres undefined)
11%	COc1ccc(NC(=O)C2CCC(CNS(=O)(=O)c3csc(C(N)=O)c3)CC2)cc1OC (centres undefined)
-3%	CC(C)C[C@@H](CC(=O)N[C@@H](CCCN)CC(=O)N[C@@H]1CCCC[C@H]1C(=O)N[C@H](CC(=O)N[C@@H](CCC(=O)O)CC(=O)O)Cc1ccccc1)NC(=O)[C@@H]1CNCC[C@H]1N
-10%	Cc1cccc(C)c1OCC(=O)N/N=C/c1cccn1C
9%	Cc1cnc(CNc2ccnc(-c3ccc(C(=O)N(C)C)cc3)n2)cn1
-12%	O=C(NCc1ccc2c(c1)OCO2)C1CCC(=O)N1C1CCCCC1 (centres undefined)
20%	COc1ccc(S(N)(=O)=O)cc1C(=O)OCC(=O)N1c2ccccc2NC(=O)C1(C)C
7%	CCOC(=O)C1(Cc2cccc(F)c2)CCN(C(=O)c2cscn2)CC1
-12%	C/C1=C/CC(C)(C)/C=C/C/C(C)=C/CC1
8%	CN(C)/C(CN1CCCCC1)=C1\N=C(c2ccccc2)OC1=O
12%	COc1ccc(Nc2nc3c(S(=O)(=O)c4ccccc4)nnn3c3ccsc23)cc1OC
1%	Cc1ccc(Nc2c(-c3ccccc3O)nc3cnccn23)cc1
8%	COc1ccc(OC)c(NC(=O)COCc2cc(-c3ccc(F)cc3)on2)c1
21%	Cc1nc2ccccc2n1CCc1nc2c3ccccc3nc(SCc3ccc(C#N)cc3)n2n1
-25%	CCCOc1ccc(C(=O)Nc2nc(C)c(Cc3ccc4c(c3)OCO4)s2)cc1
4%	O=C(Cc1c(F)cccc1Cl)OCC(=O)N1CCc2ccccc21
-4%	CC(=O)c1ccc(NC(=O)C2C3CCC(C3)C2C(=O)O)cc1 (centres undefined)
-8%	O=C(COC(=O)Cc1ccsc1)Nc1ccccc1Cl
14%	Cc1ccc(NC(=O)CN(C)C(=O)CSc2nccn2C)cc1
19%	COc1ccc(Cn2nnnc2C(c2cccs2)N2CCOCC2)cc1 (centres undefined)
6%	CC[C@H](C)[C@@H](NC(=O)O[C@@H]1C(=O)c2ccc(OC)cc2O[C@H]1c1ccc2c(c1)OCO2)C(=O)OC
11%	O=C(NCC1CCCO1)C1CCC(=O)N1Cc1ccc(F)cc1 (centres undefined)
-15%	C=CC[N+](C)(C)C/C(Cl)=C(\Cl)c1ccccc1
4%	COC(=O)c1c(C(=O)OC)c(-c2ccc(C)cc2)n2c1CCC2
?	COc1ccccc1CNc1ccnc(-c2cccnc2)n1
0%	C=C(C)CNC(=S)NNC(=O)c1cc(C)oc1C
2%	Cc1cccc(NS(=O)(=O)c2ccc(C(=O)NCCCN3CCCC3=O)cc2)c1C
1%	O=C(CN1C(=O)CC(c2ccccc2)=Nc2ccccc21)NC1CCCCC1
?	CCNc1nc(NCC)nc(SCCOc2ccc(C)cc2)n1
2%	CCOC(=O)Cn1nnc(-c2ccc(OCC(C)C)cc2)n1
5%	Cc1ccccc1CN1CCC(C(=O)Nc2ccc(Oc3cccnc3)cc2)CC1
-5%	COc1cc(CC(=O)NCCc2ccc(S(N)(=O)=O)cc2)cc(OC)c1OC
-2%	COc1ccc(NC(=O)C(=O)NCCc2csc3nc(-c4ccccc4C)nn23)cc1
15%	O=[N+]([O-])c1ccc(P(=O)(Cc2ccccc2)c2ccccc2O)cc1 (centres undefined)
5%	Cc1cccc(NC(=O)CSc2nc(C3CC3)nc3ccccc23)c1
-12%	Cc1onc(-c2ccccc2)c1-c1ccnc(N)n1
-24%	Cc1ccc(S(=O)(=O)Nc2ccccc2C(=O)Nc2sccc2C(=O)NN(C)C)cc1
-6%	Cc1ccc(C)c(NC(=O)C(=O)NCc2ccccn2)c1
-7%	COCCNC(=O)c1ccc(N2CC3CC(C2)c2cccc(=O)n2C3)c(NC(=O)c2cc(OC)cc(OC)c2)c1 (centres undefined)
-9%	Cc1ccc(S(=O)(=O)NCC(C)n2nc(C)cc2C)cc1 (centres undefined)
0%	O=C(O)C(Cc1ccccc1)N1C(=O)c2cccc3cccc(c23)C1=O (centres undefined)

Going on with the list.
VDR inh	smiles
-12%	COc1ccc(C2=Nn3c(nnc3-c3cccnc3)SC2)cc1
4%	O=C(NC(=S)Nc1ccccc1N1CCN(C(=O)c2ccccc2)CC1)c1ccccc1F
3%	O=C(O)CCN1CC2([N+](=O)[O-])CC=C(OCCO)C([N+](=O)[O-])(C1)C2 (centres undefined)
16%	O=c1c(Cc2ccccc2)c(O)ccn1Cc1ccc2c(c1)OCO2
19%	Cc1[nH]c2ccc(C(=O)NC3CCCC3)cc2c1C
-7%	C=CCOC(=O)C1=C(C)NC(=O)NC1c1ccc(N(C)C)cc1 (centres undefined)
-12%	C=CCn1c(SCC(=O)O)nnc1-c1ccc(C(C)(C)C)cc1
1%	CCOC(=O)C1CCN(S(=O)(=O)c2ccc(CN3C(=O)c4cccnc4C3=O)cc2)CC1
15%	COc1cc(OC)c(NC(=O)NCCn2nnc3cc(S(=O)(=O)N(C)C)ccc32)cc1Cl
10%	C=CCn1c(NCCO)nc2sc3c(c2c1=O)CCC3
-2%	CN(C)c1cccc(C(=O)OCC(=O)NC2CCCC2)c1
2%	COc1ccc(OC)c(S(=O)(=O)NC(C)c2ccc(-n3ccnc3)cc2)c1 (centres undefined)
6%	O=C(O)c1ccc(CSc2ccccn2)cc1
-5%	COc1ccccc1S(=O)(=O)NCc1ccc(C(=O)NC(C)c2ccccn2)cc1 (centres undefined)
-6%	Cc1ccc2[nH]cc(S(=O)(=O)c3ccc(C(C)C)cc3)c(=O)c2c1
16%	Cc1c(C(=O)NCCN(C)C)oc2c1-c1nn(Cc3cccc(Cl)c3)cc1CC2
30%	Clc1cccc(N2CCN(CCCN3CCN(c4ccccc4)CC3)CC2)c1
0%	O=C(COC(=O)CCN1C(=O)c2cccc([N+](=O)[O-])c2C1=O)NCc1ccccc1
5%	Cc1ccc(-c2c(C)sc3nc(CN4CCN(CC(=O)NC5CC5)CC4)[nH]c(=O)c23)cc1
4%	Cc1cc(C)c(NC(=O)Cn2nnc(C(=O)NCc3ccc4c(c3)OCO4)c2N)c(C)c1
11%	Cc1ccc(CNC(=O)c2ccc3c(c2)nc2n3CCOC2)cc1
-15%	CC1(OCON)CCCc2ccccc21 (centres undefined)

Shown as a hit in VDR inh, among the entries above:
VDR inh	smiles
35µM*	C=CCN1CCN(c2nc3ccccc3nc2C#N)CC1

Compound activity: PubChem, National Center for Advancing Translational Sciences (NCATS)

An excerpt; count on the stated rates, not on these rows.
